NPYLR7 agonist: agonists of mosquito NPYLR7 receptor, primary screen, cell-based, Aedes aegypti, calcium fluorescence, mosquito biting behavior; Aedes aegypti neuropeptide Y-like receptor 7 (NPYLR7); HEK293T NPYLR7/Galpha15, GCaMP6s calcium fluorescence; activation, % at 10 µM; hit rate 0.15% among 270,000; AID 1259423, 2018; in the data active means activation above about 40%;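 further: 0% = vehicle and 100% = reference agonist at the receptor; some compounds past the cut are filed as inactive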
NPYLR7 agonist max-min: second read-out of NPYLR7 agonist, no call of its own (marks repeat the call); activation, %; measured here: Max-Min RFU normalised activation; some inactives read as strong as hits;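 span of the calcium signal over five minutes; 0% = vehicle and 100% = native peptide agonist; compound fluorescence can raise it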
An asterisk follows results filed as active; & = joins results of further samples. This is a subset, so the mix of outcomes need not match the whole.

Results follow in this order: NPYLR7 agonist | NPYLR7 agonist max-min
> N#Cc1c(N)/c(=C\c2ccccc2)c2n1C(=O)C(c1ccccc1)SC=2C(N)=O (stereo unspecified)
→ 4 | 23
> Nc1nc(CSc2ncnc3c2oc2ccccc23)nc(Nc2ccccc2)n1
→ 2 | 6
> CN1C(=S)N(c2ccc(OCc3ccccc3)cc2)C(=O)/C1=C\c1ccco1
→ -5 | 8
> COC(=O)c1c(C)[nH]c(C(=O)C(C)OC(=O)c2cccn2C)c1C (stereo unspecified)
→ -3 | 11
> N#Cc1ccccc1COc1cccc(-c2nnco2)c1
→ 11 | 9
> COc1ccc2c(c1)C(C(=O)Nc1ccc3oc(C(=O)O)cc3c1)=CC(C)(C)CO2
→ 1 | 10
> CC(C)c1ccccc1N1C(=O)CSC1c1ccccc1NC(=O)C1CCCCC1 (stereo unspecified)
→ 2 | 5
> Cc1ccc(-c2cc(O)c3c(c2)CN(C(=O)CCCn2cncn2)CCO3)cc1
→ 1 | 3
> Cc1cccc(OCCNC(=O)N2CCN(S(=O)(=O)c3ccccc3)CC2)c1
→ 0 | 6
> CC(C)c1ccc(CNC2CCN(C)CC2)cc1
→ 0 | -6
> Cc1ccc(Nc2ncccc2C(=O)N2CCC2)c(C)c1
→ 5 | 4
> COc1ccc(-c2ccc3c(c2)COC2(CCN(C(=O)c4ccc(F)cc4F)CC2)O3)c(OC)c1
→ -13 | -15
> O=C(CSc1nnc(Cc2cccs2)n1C1CCCCC1)c1ccc(Cl)s1
→ -2 | 6
> CC1CC1C(=O)NCCC(=O)Nc1cc(Cl)ccc1-n1ccnc1 (stereo unspecified)
→ 0 | -4
> CCOC(=O)C(C)(C)Oc1ccc(Cl)cc1
→ 6 | -5

Grouped by structure, those above with a halogen.
Results follow in this order: NPYLR7 agonist | NPYLR7 agonist max-min
> COc1ccc(-c2ccc3c(c2)COC2(CCN(C(=O)c4ccc(F)cc4F)CC2)O3)c(OC)c1
→ -13 | -15
> O=C(CSc1nnc(Cc2cccs2)n1C1CCCCC1)c1ccc(Cl)s1
→ -2 | 6
> CC1CC1C(=O)NCCC(=O)Nc1cc(Cl)ccc1-n1ccnc1 (stereo unspecified)
→ 0 | -4
> CCOC(=O)C(C)(C)Oc1ccc(Cl)cc1
→ 6 | -5

Other compounds
Results follow in this order: NPYLR7 agonist | NPYLR7 agonist max-min
> CCCC(O)=C1C(=O)CC(C)(C)CC1=Nc1ccccc1O
→ -3 | -7
> CCc1nc2n(n1)C(=O)C(C(c1ccc(C)cc1)N1CCOCC1)S2 (stereo unspecified)
→ -4 | -8
> CCOC(=O)[C@@H]1CN(C(=O)c2ccc(NC(C)=O)cc2)[C@H]2c3ccc(OC)cc3O[C@@H]12
→ 0 | 2
> Cc1nc(-c2cccs2)sc1-c1ccc(SCC(N)=O)nn1
→ -14 | -14
> O=c1cc[nH]c2c1ccc1c(=O)cc[nH]c12
→ 2 | 3
> COCc1ccc(CN2CCc3c([nH]c4ccccc34)C2C(C)(C)C)o1 (stereo unspecified)
→ 10 | 2
> COC(=O)c1ccc(C2C(C(=O)Nc3ccccc3)=C(C)Nc3nc4ccccc4n32)cc1 (stereo unspecified)
→ 0 | -3
> CC(C)c1cc(C(=O)N2CC[C@@H](c3ccc(F)cc3)[C@H](O)C2)n[nH]1
→ 2 | 1
> CCc1c(C)nc(Nc2nc(C)c3ccccc3n2)[nH]c1=O
→ 10 | 7
> CCOc1cc(-c2ccc3c(c2)OCO3)cc(=[O+]CC)c2c(C)oc(C)c12
→ -8 | -10
> COc1ccc(CSc2ncnc3nc[nH]c23)cc1
→ -1 | 0
> COCCN(CC1CC1)S(=O)(=O)NCc1ccccc1
→ 4 | 2
> CC1=C(C(=O)NCc2ccccc2-n2cccn2)C(C)NC(=O)N1 (stereo unspecified)
→ 4 | 6
> Cc1ccccc1NC(=O)c1ccc(-n2nc(-c3cccc(Cl)c3)cc2N)cc1
→ -3 | -7
> COc1ccc(CCN(C)c2cc(-c3ccccc3)nc(SCc3ccc(C(=O)NCc4cccnc4)cc3)n2)cc1OC
→ 2 | 6

Compounds listed so far that have a thiophene ring, fused or not:
Results follow in this order: NPYLR7 agonist | NPYLR7 agonist max-min
> O=C(CSc1nnc(Cc2cccs2)n1C1CCCCC1)c1ccc(Cl)s1
→ -2 | 6
> Cc1nc(-c2cccs2)sc1-c1ccc(SCC(N)=O)nn1
→ -14 | -14

(listing goes on)
Results follow in this order: NPYLR7 agonist | NPYLR7 agonist max-min
> COc1cc(OC)cc(C(=O)N(Cc2nc3cc(Cl)ccc3o2)C2CCCC2)c1
→ -7 | 0
> C=CCOC(=O)C1=C(C)N2CCSC2=C(C#N)C1c1ccco1 (stereo unspecified)
→ 0 | -2
> COc1cc(/C=C2/SC(=S)N(CC(=O)O)C2=O)ccc1OCc1ccccc1
→ 2 | -5
> CC(C)Cn1c(=O)n(C)c(=O)c2cc(C(=O)c3cc(Cl)cc(Cl)c3O)cnc21
→ 9 | 9
> COc1ccc(CCNC(=O)c2cc(-c3cccs3)nn2-c2ccc(F)cc2)cc1OC
→ 10 | 16
> Cn1nnc2c(Nc3ccccc3F)ncnc21
→ 9 | 3
> CCCc1cc(=O)[nH]c(-n2nc(C)cc2NC(=O)C(C)(C)Oc2ccc(Cl)cc2)n1
→ -3 | -4
> O=C(Nc1cccc(-c2cccc(-c3ccc(F)cc3)n2)c1)c1ccc2c(c1)OCO2
→ 20 | 26
> COCCCNc1nc2ccccn2c(=O)c1C=C1SC(=S)N(Cc2ccccc2)C1=O
→ 13 | 15
> Cc1ccc(F)c(C(=O)N2CCN(c3ccc(NC(=O)c4ccccc4F)cn3)CC2)c1F
→ 3 | 0
> CC(C)Cc1nc(C(C)NS(C)(=O)=O)n(-c2ccc3c(c2)OCCO3)n1 (stereo unspecified)
→ 19 | 5
> COc1ccccc1N1CCN(C(=O)c2csc(-c3cc4ccccc4n3C)n2)CC1
→ 1 | -2
> CN(CCOc1ccccc1)Cc1ccc(O)c(O)c1
→ 24 | 14
> Cc1cc(NC(=O)COC(=O)Cn2c(C)csc2=O)no1
→ -1 | 0
> Cc1oc(-c2cccc(C(F)(F)F)c2)nc1CC(=O)N1CCc2ccccc2C1c1ccc(Cl)cc1 (stereo unspecified)
→ 21 | 6

Quoted from the listing.
For NPYLR7 agonist, Cc1oc(-c2cccc(C(F)(F)F)c2)nc1CC(=O)N1CCc2ccccc2C1c1ccc(Cl)cc1 (stereo unspecified) is listed with 21
For NPYLR7 agonist max-min, C=CCOC(=O)C1=C(C)N2CCSC2=C(C#N)C1c1ccco1 (stereo unspecified) is listed with -2
For NPYLR7 agonist max-min, COc1cc(OC)cc(C(=O)N(Cc2nc3cc(Cl)ccc3o2)C2CCCC2)c1 is listed with 0
For NPYLR7 agonist max-min, COc1ccccc1N1CCN(C(=O)c2csc(-c3cc4ccccc4n3C)n2)CC1 is listed with -2
For NPYLR7 agonist max-min, COc1ccc(CCNC(=O)c2cc(-c3cccs3)nn2-c2ccc(F)cc2)cc1OC is listed with 16
For NPYLR7 agonist max-min, CC(C)Cn1c(=O)n(C)c(=O)c2cc(C(=O)c3cc(Cl)cc(Cl)c3O)cnc21 is listed with 9
For NPYLR7 agonist max-min, O=C(Nc1cccc(-c2cccc(-c3ccc(F)cc3)n2)c1)c1ccc2c(c1)OCO2 is listed with 26

Remaining list, next part
Results follow in this order: NPYLR7 agonist | NPYLR7 agonist max-min
> Cc1ccc(NC(=O)CNC(=O)c2cnnn2-c2ccccc2)c(F)c1
→ -1 | -6
> N#Cc1ccc(CN2CCC3(CC2)CC3c2nc(-c3cccnc3)no2)cc1 (stereo unspecified)
→ -1 | -3
> CCn1ccnc1CN(C)CC(=O)Nc1ccc(Cl)cc1F
→ 7 | -6
> Cc1ccccc1OCCSc1nc2ccccc2n1C
→ -10 | -5
> O=C(NC1CCSc2ccccc21)C1=COCCO1 (stereo unspecified)
→ 0 | 26
> CC1CN(c2nc(-c3ccccc3)nc3c2CN(C(=O)Cc2ccc(F)cc2)CC3)CC(C)O1 (stereo unspecified)
→ 18 | 17
> CCOC(=O)c1[nH]c(C)c(C(=O)OCC(=O)N(C)C)c1C
→ 5 | 0
> CN(C)Cc1cccc(NC(=O)C2(c3ccc(F)cc3)CCC2)c1
→ 2 | 0
> Cc1noc(-c2ccc(C(C)(C)C)cc2)c1C(=O)NCCCN(C)c1ccccc1
→ -2 | 1
> O=C(c1cn(C2CCCCCC2)nn1)N1CCc2c(Cl)cccc2C1
→ 5 | 5
> Cc1cn2c3c(=O)n(CCN4CCCCC4)c(=O)n(C)c3nc2n1C(C)C
→ 10 | 5
> O=C(NC(NC(=O)c1ccco1)c1cccc([N+](=O)[O-])c1)c1ccco1
→ 0 | 0
> Cc1nn(C)c(Cl)c1S(=O)(=O)N1CCC(CO)(CCc2ccccc2)CC1
→ -5 | -8
> Cc1ccc(N=c2scc(-c3ccc(C)cc3)n2N2CCOCC2)cc1
→ -6 | -10
> CO/N=C(\C(=O)NC1C(=O)N2C(C(=O)O)=C(COC(N)=O)CSC12)c1ccco1 (stereo unspecified)
→ -4&-12 | -4&-16
> Cc1cn2nc(N3CCC4(CC3)CC4c3nnc(-c4cccc(F)c4)o3)sc2n1 (stereo unspecified)
→ 5 | 1
> COCCN1C(=O)N(Cc2ccccc2)C2(CCN(Cc3cccn3-c3nccs3)CC2)C1=O
→ 3 | -11
> CCCn1ccnc1CN1CCC(c2ccnc(-c3ccncc3)c2)C1 (stereo unspecified)
→ 2 | 2
> Cc1cccc2sc(N(CCCN3CCOCC3)C(=O)C3COc4ccccc4O3)nc12 (stereo unspecified)
→ 0 | -6
> O=C(Cn1cnc2ccsc2c1=O)NCc1cccc(NC(=O)C2CC2)c1
→ 0 | 0
> CCOC(=O)C1CCCCN1C(=O)c1cn(C)c2ccc(C)cc2c1=O (stereo unspecified)
→ -2 | 0
> CCCCN(C)C(=O)c1sc(=O)n(Cc2ccccc2F)c1C
→ 6 | 2
> COc1cccc(-c2nc3ccccn3c2NC(=O)c2ccc(C)cc2)c1
→ -6 | -1
> COCCn1c(C)c(C)n2c3c(=O)n(CCC(C)C)c(=O)n(C)c3nc12
→ 2 | 12
> O=C1NC(=O)N2CCCCC12 (stereo unspecified)
→ -2 | -6
> CC(C)N1CCNC(=O)C1CC(=O)NCc1cn[nH]c1-c1cccs1 (stereo unspecified)
→ -5 | -9
> CC(C)NC(=O)c1cn2cc(-c3ccc(C(F)(F)F)cc3)ccc2n1
→ 5 | 3
> CC(C)(C)c1ccc(C(=O)CSc2nnc3ccccn23)cc1
→ 3 | 3
> Cc1cc[n+](C2=C(c3c(C)[nH]n(-c4ccc(Cl)c(Cl)c4)c3=O)C(=O)N(C(C)C)C2=O)cc1C
→ 11 | 11
> CC(C)N=C1NN=C(c2c[nH]c3ccccc23)C(c2ccccc2)S1 (stereo unspecified)
→ -3 | -6
> CCCc1nc2oc3ccccc3c(=O)c2c(=O)n1-c1ccc(C)cc1
→ 3 | -2
> Oc1c(Cl)cc(Cl)c2ccc(N/N=C\c3cc(Br)cs3)nc12
→ -5 | -10
> CC(=O)Nc1nc(CSc2nncn2-c2ccc(C)cc2C)cs1
→ 7 | 5
> CN(C)S(=O)(=O)c1ccc(-c2nc(C#N)c(NCc3ccccc3)o2)cc1
→ -1 | 17
> COCCN(CC(=O)N(CCc1c[nH]c2ccccc12)Cc1ccc(C(F)(F)F)cc1)C(=O)c1cccc(Cl)c1
→ 22 | 27
> O=C(CC1CSc2nc3c(c(=O)n21)CCCC3)N1CCCCCC1 (stereo unspecified)
→ -1 | -2
> CCOC(=O)C1(C)CCCCCN1C(=O)c1ccc(C(=O)OC)cc1 (stereo unspecified)
→ -2 | -6
> CC1(C)CC2=C(C(NC(=O)c3ccc([N+](=O)[O-])cc3)C1)C1(O)CC(C)(C)CC(C)(C2)C1 (stereo unspecified)
→ 4 | 1
> CCC(C)N(Cc1ccc(OS(C)(=O)=O)cc1)C(=O)Nc1ccc(C)cc1C (stereo unspecified)
→ -6 | 4
> CCOC(=O)C(C)Sc1ncnc2c1nnn2Cc1ccc(F)cc1 (stereo unspecified)
→ 15 | 16
> O=[N+]([O-])c1nccn1CC(O)CN1CCCCC1 (stereo unspecified)
→ 3 | 0
> Nc1c(Oc2ccccc2F)ncnc1N1CCSCC1
→ 20 | 12
> O=C(c1ccco1)N(Cc1nccn1Cc1ccc(Cl)cc1Cl)c1ccccc1
→ 18 | 29
> O=C(c1c(F)c(F)cc(F)c1F)N1CCOC(c2ccccc2)C1 (stereo unspecified)
→ 3 | 0
> FC(F)(F)c1ccc(-n2cnc3ccccc32)nc1
→ -2 | -4
> O=P1(N(CCO)CCO)C=C(c2ccccc2)SC(c2ccccc2)=C1
→ -11 | -18
> CCOC1CC(NS(=O)(=O)N(C)C)C12CCCCC2 (stereo unspecified)
→ 0 | -3
> COC(=O)Nc1cccc(NC(=O)c2c(Cl)c3ccccc3n2C)c1
→ 1 | -1
> C=CCNc1ccccc1C(=O)N(Cc1c(C)nn(C)c1C)C(C)C
→ 5 | 13
> CC(=O)N1CCCN(CCOc2cc(Cl)cc(Cl)c2)CC1
→ 1 | 3
> CC1(Cc2cccc(C#N)c2)C(=O)Nc2ccc(-c3cccc(C(F)(F)F)c3)cc21 (stereo unspecified)
→ 1 | -3
> Cc1cccc(CNCC(NC(=O)OC(C)(C)C)C(C)C)c1 (stereo unspecified)
→ 5 | 3
> CCC(COC)NC(=O)c1ccccc1OC1CCN(C(=O)COC)CC1 (stereo unspecified)
→ 2 | 2
> CN(c1ccccc1)S(=O)(=O)c1ccc(C(=O)Nc2c3c(nn2C)CCC3)cc1
→ 17 | 17
> O=c1nc2sc3[nH]c(=O)sc3cc-2s1
→ 244* | 239*
> NCc1cc(-c2ccccc2F)on1
→ -3 | -3
> O=C(CSc1nnc(-c2cccnc2)n1-c1cccc(Cl)c1)N1CCOCC1
→ -3 | 4
> Cc1ccc(-n2ncc3c(C)nnc(SCC(=O)N(C)c4ccccc4)c32)cc1C
→ -8 | -13
> COCc1cc(C)nc(N/N=C\c2cc(Br)cc(OC)c2O)c1C#N
→ -2 | 7
> OCc1cn(C2CCN(Cc3ccc(-c4ccccn4)cc3)CC2)nn1
→ 19 | 1

Source: PubChem (Fisher Drug Discovery Resource Center)
